Screening results: PubChem, Center for Chemical Genomics, University of Michigan
HIV TAR-Tat = TAR RNA-Tat peptide displacers, HIV-1, primary screen, biochemical, FRET, FAM/TAMRA-labeled Tat; AID 1259389, 2018; HIV-1 TAR RNA, Tat peptide displacement FRET; stronger effect = higher value; z-score (test concentration not listed); actives 0.6% (n = 100,000);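 further: score is relative to mean and SD of negative controls; some compounds called inactive have numbers as strong as hits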
CDC25B-CDK2 inh = primary biochemical HTRF screen for blockers of M-phase inducer phosphatase 2 binding to CDK2/cyclin A. z-score (test concentration not listed). P30305+P24941. actives 0.72% (n = 94,000). HTRF CDC25B-CDK2/CyclinA binding, anti-His/anti-Flag; stronger effect = higher value;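 further: score is relative to mean and SD of negative controls; strong numbers were not always called active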
Active calls of the source: *.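 How the source made its calls: active means z-score from 3 up in half or more of its runs; inactive means the rest.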

`CC1CCCCC1NC(=O)C1CCN(S(=O)(=O)c2ccc3c(c2)CCC(=O)N3)CC1` (configuration not stated) gave HIV TAR-Tat -1.03 and CDC25B-CDK2 inh -0.23.
Cc1oc(-c2ccc(Cl)cc2)cc1C(=O)O/N=C(\N)Cc1nc2cccnc2n1C1CC1 was read as CDC25B-CDK2 inh 0.21.
`CCSC1=C(C#N)C(c2ccc(Cl)cc2)CC(=O)N1` (configuration not stated) gave HIV TAR-Tat -0.5 and CDC25B-CDK2 inh -2.47.
For CN(C(=O)C(=O)Nc1ccc2nc3n(c(=O)c2c1)CCCCC3)C1CCCCC1 the results were CDC25B-CDK2 inh -2.05.
`Cc1ccc2onc(CNC(=O)N(C)c3ccc(C)c(C)c3)c2c1` gave HIV TAR-Tat 0.2.
`Cc1ccc(C(O)(C(C)C)C(CN2CCCC2)c2ccccc2)cc1` (configuration not stated) gave HIV TAR-Tat 1.61 and CDC25B-CDK2 inh -1.47.
CN(C)CCNC(=O)c1cc(-c2cccnc2)nc2ccccc12 was read as HIV TAR-Tat 0.29.
`CCc1c(C)nc2nncn2c1Nc1ccccc1` gave HIV TAR-Tat 1.1 and CDC25B-CDK2 inh 1.02.
Screening CCc1cc(Nc2cc(Cl)ccc2C)n2ncnc2n1 returned HIV TAR-Tat 0.86 and CDC25B-CDK2 inh 1.16.
`COc1ccc(NC(=O)CSc2ccc(-c3cccs3)nn2)cc1` gave HIV TAR-Tat 0.53.
`CCc1ccc2occ(CC(=O)Nc3nnc(C(C)C)s3)c2c1` gave HIV TAR-Tat 2.02 and CDC25B-CDK2 inh -1.81.
For CCOC(=O)/C(C#N)=C/Nc1cc(C)no1 the results were CDC25B-CDK2 inh -1.55.
For CN(C)c1ccc(C(CNS(=O)(=O)c2ccc(Br)cc2)N2CCOCC2)cc1 (configuration not stated) the results were HIV TAR-Tat 0.22.
For CCOc1ccc2nc(-n3nc(C)c4c3NC(=O)CC4c3cc(F)ccc3F)sc2c1 (configuration not stated) the results were HIV TAR-Tat 0.3.
`CC(=O)N1CCC2(CC1)OC(=O)C(C)=C2C(=O)NCCN1CCN(C)CC1` gave HIV TAR-Tat 0.89.

Part of the list above in order of formula weight, descending.
Cc1oc(-c2ccc(Cl)cc2)cc1C(=O)O/N=C(\N)Cc1nc2cccnc2n1C1CC1 was read as CDC25B-CDK2 inh 0.21.
For CCOc1ccc2nc(-n3nc(C)c4c3NC(=O)CC4c3cc(F)ccc3F)sc2c1 (configuration not stated) the results were HIV TAR-Tat 0.3.
`Cc1ccc2onc(CNC(=O)N(C)c3ccc(C)c(C)c3)c2c1` gave HIV TAR-Tat 0.2.
`CCSC1=C(C#N)C(c2ccc(Cl)cc2)CC(=O)N1` (configuration not stated) gave HIV TAR-Tat -0.5 and CDC25B-CDK2 inh -2.47.

The listing continues.
CCc1nnc(NC(=O)CSCc2cc(=O)n3nc(CC)sc3n2)s1 was read as HIV TAR-Tat -1.31.
For CCOC(=O)C1CCN(c2c(-c3ccc(C)cc3)c(=O)c2=O)CC1 the results were HIV TAR-Tat 0.48.
For FC(F)(F)c1nnc2ccc(N3CCN(c4ccccc4)CC3)nn12 the results were HIV TAR-Tat 1.46.
`Nc1c2c(=O)[nH]c(O)cc2nn1-c1ccccc1` gave CDC25B-CDK2 inh -1.16.
`O=C(NCc1ccco1)C1CCC(Cn2c(=S)[nH]c3ccsc3c2=O)CC1` (configuration not stated) gave CDC25B-CDK2 inh -2.29.
CCOC(=O)c1sc2ccccc2c1S(=O)(=O)N1CCN(c2ccccc2)CC1 was read as HIV TAR-Tat -0.48.
O=S(=O)(Nc1ccc2oc(-c3ccc(Cl)cc3)nc2c1)c1ccccc1 was read as HIV TAR-Tat 0.12 and CDC25B-CDK2 inh 0.15.
`CN(C)CCCN1C(=O)C(=O)/C(=C(\O)c2ccc(Cl)cc2)C12C(=O)N(C)c1ccccc12` (configuration not stated) gave HIV TAR-Tat -0.06 and CDC25B-CDK2 inh -0.89.
For Cn1ncc2c(Nc3ccc(F)cc3F)ncnc21 the results were HIV TAR-Tat 1.88.
For CCCNc1cc(C)nc2nc(-c3cccc(C)c3)nn12 the results were HIV TAR-Tat 1.59 and CDC25B-CDK2 inh 0.44.
For CCCCCOc1cccc(C2c3c(oc4ccccc4c3=O)C(=O)N2c2nnc(C)s2)c1 (configuration not stated) the results were HIV TAR-Tat -1.27 and CDC25B-CDK2 inh 0.18.
For Cn1c(=O)c2c(-c3ccccc3)n3c4ccccc4ncc3c2n(C)c1=O the results were CDC25B-CDK2 inh -1.36.
For Cc1ccc(-c2cc(C(=O)O)c3c(-c4ccc(C)cc4)[nH]nc3n2)cc1 the results were HIV TAR-Tat 1.94.
`O=C1c2ccccc2C(=O)c2c1ccc(C(=O)O)c2[N+](=O)[O-]` gave CDC25B-CDK2 inh -0.12.
For CSc1nsc(SC)c1C(=O)Nc1ccc(-c2csnn2)cc1 the results were CDC25B-CDK2 inh -1.3.
For O=C(O)c1ccc(-n2nnnc2SCc2ccccc2Br)cc1 the results were HIV TAR-Tat 0.98 and CDC25B-CDK2 inh -0.59.
For COC(=O)c1cc(S(=O)(=O)N2CCN(c3ccc(F)cc3)CC2)cn1C the results were HIV TAR-Tat 1.19.
Screening Cc1oc2ccc(OC(=O)N3CCOCC3)cc2c1C(=O)OC(C)C returned HIV TAR-Tat 1.54 and CDC25B-CDK2 inh -2.75.
`Cc1nn(-c2nncc(-c3ccc(Cl)cc3)n2)c2c1C(c1ccc(F)cc1F)CC(=O)N2` (configuration not stated) gave HIV TAR-Tat 1.39 and CDC25B-CDK2 inh -0.64.
O=C(NCc1ccco1)c1cnc2n(c1=O)CCS2 was read as CDC25B-CDK2 inh 1.25.
`O=C(Cn1c(=O)oc2ccccc21)N(Cc1ccco1)C1CCCC1` gave HIV TAR-Tat -1.68.
`COc1ccc2nc3oc(C(=O)NCCCN4CCOCC4)cc3cc2c1` gave CDC25B-CDK2 inh -2.21.
`O=C(CSc1nc2ccccc2[nH]1)c1ccc2c(c1)Cc1ccccc1-2` gave CDC25B-CDK2 inh -2.25.
Screening O=C1CC(=O)Nc2cc(S(=O)(=O)Nc3ccc(F)cc3)ccc2N1 returned HIV TAR-Tat 0.64 and CDC25B-CDK2 inh -0.68.
`CC(CCc1ccco1)NC(=O)CCc1nnc2ccc(N3CCCC3)nn12` (configuration not stated) gave HIV TAR-Tat 0.29.
CCCCOC(=O)Nc1sc2c(c1C(N)=O)CCC(C)C2 (configuration not stated) was read as HIV TAR-Tat 0.74 and CDC25B-CDK2 inh -3.54.
For Clc1ccc(N2CCN(c3ccc(Cl)nn3)CC2)cc1 the results were HIV TAR-Tat -0.36 and CDC25B-CDK2 inh 1.27.
Screening CS/C(N)=N\N=C(/C)c1cc2ccccc2o1 returned CDC25B-CDK2 inh -0.61.
`O=C(Cn1nnc(-c2ccccc2)n1)Nc1ccccc1[N+](=O)[O-]` gave CDC25B-CDK2 inh -1.58.
Screening CC1(C)CC2(CC(C)(C)NC(=O)N2)NC(=O)N1 returned CDC25B-CDK2 inh 0.69.
`CCOCCCNC(=O)C(CC)N1C(=O)CCn2nc(C)cc21` (configuration not stated) gave HIV TAR-Tat 1.63.
`CN(C)CCn1c2c(c(SCC(=O)Nc3ccc(F)cc3)nc1=O)CCC2` gave HIV TAR-Tat 1.58.
O=C(CC1CCCCC1)N(c1ccc(F)cc1)C1C=CS(=O)(=O)C1 (configuration not stated) was read as HIV TAR-Tat 0.29 and CDC25B-CDK2 inh -0.58.
`CCOC(=O)c1ccc(CSc2nnc3ccc4ccccc4n23)o1` gave HIV TAR-Tat 0.18 and CDC25B-CDK2 inh 1.12.
For Oc1ccccc1CN(Cc1ccccc1)Cc1ccccc1 the results were HIV TAR-Tat 0.39 and CDC25B-CDK2 inh -0.68.
For Cc1cc(C)cc(NC(=O)N2CCN(c3cc(-c4noc(C)n4)ccc3C)CC2)c1 the results were HIV TAR-Tat 0.66.
`Cc1ccc(OCc2cc(=O)n3c4c(sc3n2)CCCC4)cc1` gave HIV TAR-Tat 0.74 and CDC25B-CDK2 inh -2.13.
For COc1cccc(CNc2nc3ccc(Cl)cc3n3nnnc23)c1 the results were HIV TAR-Tat -2.41 and CDC25B-CDK2 inh -3.04.
`CCC1CCCCN1CCNS(=O)(=O)c1cccc2cccnc12` (configuration not stated) gave CDC25B-CDK2 inh 0.78.
For Cc1nn2c3c(cnc2c1-c1ccc(F)cc1)C(=O)CC(c1ccccc1)C3 (configuration not stated) the results were HIV TAR-Tat 2.4 and CDC25B-CDK2 inh -2.78.
For CC1CN(Cc2nnc(-c3ccccc3)o2)CC(C)O1 (configuration not stated) the results were HIV TAR-Tat 1.2 and CDC25B-CDK2 inh -1.68.
O=c1c(Cl)c(N2CCN(c3ccccc3)CC2)cnn1-c1nc2ccccc2s1 was read as HIV TAR-Tat 0.56 and CDC25B-CDK2 inh 0.98.
Screening CC(Sc1nnc2ccc3ccccc3n12)C(=O)Nc1ccccc1 (configuration not stated) returned HIV TAR-Tat -0.2 and CDC25B-CDK2 inh 0.36.
COc1ccc(S(=O)(=O)Nc2cc(N3CCCS3(=O)=O)ccc2C)cc1OC was read as HIV TAR-Tat 1.06.
For COc1ccccc1-c1noc2nc[nH]c(=O)c12 the results were HIV TAR-Tat 0.2 and CDC25B-CDK2 inh -1.15.

Reprinted at random: four records from the list
`CCC1CCCCN1CCNS(=O)(=O)c1cccc2cccnc12` (configuration not stated) gave CDC25B-CDK2 inh 0.78.
`CN(C)CCn1c2c(c(SCC(=O)Nc3ccc(F)cc3)nc1=O)CCC2` gave HIV TAR-Tat 1.58.
COc1ccc(S(=O)(=O)Nc2cc(N3CCCS3(=O)=O)ccc2C)cc1OC was read as HIV TAR-Tat 1.06.
`Cc1ccc(OCc2cc(=O)n3c4c(sc3n2)CCCC4)cc1` gave HIV TAR-Tat 0.74 and CDC25B-CDK2 inh -2.13.

Later entries.
`C=CCOc1ccc(C2/C(=C(\O)c3ccc(OC)cc3)C(=O)C(=O)N2c2nnc(C)s2)cc1` (configuration not stated) gave HIV TAR-Tat -0.91 and CDC25B-CDK2 inh -2.37.
`Cc1ccccc1CSc1nc(=O)n(C2CCCC2)c2c1CCC2` gave HIV TAR-Tat 1.18 and CDC25B-CDK2 inh -0.45.
`CCOC(=O)c1sc(NC(=O)CSc2nc(C)cc(=O)[nH]2)nc1C` gave HIV TAR-Tat -0.45 and CDC25B-CDK2 inh -1.28.
Screening CCC(C)NC(=O)C1c2ccccc2C(=O)N(C2CCCC2)C1c1cccs1 (configuration not stated) returned HIV TAR-Tat 0.55.
`CCOC(=O)c1ccc(Nc2c(-c3ccc(SC)cc3)nc3nc[nH]n23)cc1` gave HIV TAR-Tat 0.04.
For COc1ccccc1N1CCN(c2csc3ccc(Br)cc3c2=O)CC1 the results were HIV TAR-Tat -1.19.
Cc1cc(C)cc(NC(=O)Nc2c(C)n(C)n(-c3ccccc3)c2=O)c1 was read as HIV TAR-Tat 0.65 and CDC25B-CDK2 inh -0.55.
For CN(Cc1ccccc1)c1csc2ccccc2c1=O the results were HIV TAR-Tat -1.83.
For NNC(=O)CNC(=O)c1ccc(Br)cc1 the results were CDC25B-CDK2 inh -1.15.
`Cc1ccc(C(=O)Nc2c(C)nc3ccccn3c2=O)cc1C` gave HIV TAR-Tat 1.33.
Screening Cc1ccc2scc(N3CCC(C)CC3)c(=O)c2c1 returned HIV TAR-Tat 0.98.
For O=C(Nc1nc(CC(=O)N2CCN(C(=O)c3ccco3)CC2)cs1)NC1CCCCC1 the results were HIV TAR-Tat 1.48.
`COc1ccc(OC(=O)c2snnc2C)cc1` gave HIV TAR-Tat 2.23 and CDC25B-CDK2 inh -0.45.
For CC1CCc2c(cnc3c(C(=O)NC(C)c4ccc5c(c4)OCCO5)cnn23)C1 (configuration not stated) the results were HIV TAR-Tat 1.17.
Screening CCCN1CCN(C(=O)C2Cc3ccccc3N2C(=O)CC)CC1 (configuration not stated) returned HIV TAR-Tat 1.56.
`Fc1ccc(-c2ccc(-c3nn4c(-c5ccco5)nnc4s3)o2)cc1` gave HIV TAR-Tat -1.11 and CDC25B-CDK2 inh -0.97.
Screening Cc1cn2c(=O)c(S(=O)(=O)N3CCCc4ccccc43)c(C)nc2s1 returned HIV TAR-Tat -0.9.
O=C1OC(N2CCN(c3cccc(Cl)c3)CC2)c2ccccc21 (configuration not stated) was read as CDC25B-CDK2 inh -1.92.
`COc1ccc(N2CCN(S(=O)(=O)c3ccc(CN4C(=O)c5cccnc5C4=O)s3)CC2)cc1` gave HIV TAR-Tat -0.97.
Clc1ccc(OCc2nnc3c4cnn(Cc5ccccc5)c4ncn23)cc1 was read as HIV TAR-Tat -0.75 and CDC25B-CDK2 inh -2.47.
`CCC(C)(C)NS(=O)(=O)c1ccc(CN2C(=O)c3cccnc3C2=O)cc1` gave HIV TAR-Tat 1.7.
For Cc1cc(C)c(-c2c(NC3CCCCC3)c(=O)c2=O)cc1C the results were HIV TAR-Tat 0.07.
`CCOc1ccc(N2CC(O)=C(c3nc4ccccc4c(=O)[nH]3)C2=N)cc1` gave HIV TAR-Tat 0.06 and CDC25B-CDK2 inh 2.92.
For Cc1cc(-c2ccc(S(=O)(=O)NC3CC3)s2)on1 the results were HIV TAR-Tat 0.2.
For Cc1ccc(Cl)cc1NS(=O)(=O)c1ccc(-c2ccc(=O)[nH]n2)o1 the results were HIV TAR-Tat 2.15.
Screening COc1ccc(N2C(=O)CC(Nc3ccc(N4CCCCC4)cc3)C2=O)cc1 (configuration not stated) returned HIV TAR-Tat 1.06 and CDC25B-CDK2 inh -1.25.
